Assay outcomes: PubChem, several laboratories
Autofluor counter – counter-screen for toxin protease inhibitors: compound fluorescence; fluorescence intensity (concentration not given with the values); AID 624483; compound autofluorescence counterscreen, microsphere flow cytometry; hits give high values; 360,000 tested, 3.1% active;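 active = at least 3 SD above the mean of all compounds, about 16000 in these data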;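 note: 100 nL of 1 mM stock went into each well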
Mtb hypoxia inh – inhibitors of hypoxia-regulated fluorescent reporter in Mycobacterium tuberculosis. 300,000 tested, 0.1% active. AID 1159583. fluorescence inhibition, % (test concentration not listed). M. tuberculosis hypoxia-regulated fluorescent reporter, fluorescence;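 active = 35 to 45% if threefold the growth effect, above 45% if 1.5-fold the growth effect; inactive = the rest, general growth blockers included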;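 note: wells of about 50 µL received 100 nL stock; 0% = vehicle wells and 100% = reference inhibitor wells; whole bacteria with a GFP reporter of the hypoxia response; strong numbers were not always called active; many hits fall short of the cut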
PrP 5UTR inh – inhibition of PrP 5' UTR reporter expression | cell-based PrP 5' UTR mRNA reporter, plate reader | inhibition, % (concentration not given with the values) | 340,000 tested, 0.35% active;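 active = every replicate at 50% or more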;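 note: 0 = median of the neutral control wells; tested in H4 reporter cells; numbers are from one replicate; inactives centre near -14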
Sa ugtP lethal – growth inhibition of S. aureus ugtP deletion strain; S. aureus RN4220 ugtP deletion, OD600 growth, 16 h; some inactives read as strong as hits; growth inhibition, % (test concentration not listed); 330,000 tested, 0.54% active;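 active = z-score under -3 and OD600 up to 0.15 on both plates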;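 note: plate controls were untreated wells for no effect and antibiotic for full effect; wells of about 80 µL received 100 nL stock; the first replicate is given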
BJeLR viability – kills HRASV12-expressing BJeLR cells; inhibition, % (no concentration beside the values); AID 1554; 300,000 tested, 0.17% active; BJeLR (HRASV12) viability, CellTiter-Glo ATP luminescence, 48 h; reference of the scale not given here;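 active = replicate mean above 50%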;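 note: 50 nL library stock added to about 25 µL; numbers are from one replicate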
RN4220 kill – kills Staphylococcus aureus RN4220; S. aureus RN4220 growth, OD600, 16 h; inhibition, % (concentration not given with the values); 330,000 tested, 0.33% active; AID 1259311;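 active = z-score of -3 or lower and OD600 up to 0.18 on both plates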;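 note: plate controls were untreated cells for no effect and reference antibiotic for full effect; stock transfer was 100 nL into about 80 µL; one replicate is shown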
Mtb hypoxia inh growth – also measured in Mtb hypoxia inh; calls as there; growth inhibition, %; measured here: M. tuberculosis growth (absorbance);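 0% = vehicle and 100% = reference antibiotic; read after six days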
The depositor's hits bear a star; & = joins results of further samples.

Start of the listing, in advance, 2 compounds:
`CCOC(=O)c1nc(-c2ccc3c(c2)OCO3)[nH]c1C` gave Autofluor counter 5961, Mtb hypoxia inh 15, PrP 5UTR inh -28, Sa ugtP lethal 16, BJeLR viability 2, RN4220 kill 8.8 and Mtb hypoxia inh growth 10.
`Cc1cccc(OCC(=O)NN=Cc2cccn2C)c1` gave Mtb hypoxia inh -5, Sa ugtP lethal -4, RN4220 kill 0.1 and Mtb hypoxia inh growth -10.

Main list (from the top)
`CCOC(=O)c1nc(-c2ccc3c(c2)OCO3)[nH]c1C` gave Autofluor counter 5961, Mtb hypoxia inh 15, PrP 5UTR inh -28, Sa ugtP lethal 16, BJeLR viability 2, RN4220 kill 8.8 and Mtb hypoxia inh growth 10.
`Cc1cccc(OCC(=O)NN=Cc2cccn2C)c1` gave Mtb hypoxia inh -5, Sa ugtP lethal -4, RN4220 kill 0.1 and Mtb hypoxia inh growth -10.
CCCC(=O)N1CCN(Cc2ccc3c(c2)OCO3)CC1 was read as Autofluor counter 1909, Mtb hypoxia inh 9, PrP 5UTR inh -12, Sa ugtP lethal 11, BJeLR viability -4, RN4220 kill 1.0 and Mtb hypoxia inh growth 11.
Screening CC(C)c1ccc(NC(=O)CCCN2C(=O)NC(C)(C)C2=O)cc1 returned Autofluor counter 4319, Mtb hypoxia inh 15, PrP 5UTR inh -21, Sa ugtP lethal 2, RN4220 kill 3.5 and Mtb hypoxia inh growth 5.
CCOc1cc(N2CCOCC2)c(OCC)cc1NC(=O)COC(=O)c1ccc(Cl)nc1 was read as Autofluor counter 2755, Mtb hypoxia inh 17, PrP 5UTR inh -18, Sa ugtP lethal 2, RN4220 kill 2.6 and Mtb hypoxia inh growth 19.
Screening COc1ccccc1CN(C)C(=O)COC(=O)c1c(C)noc1C returned Autofluor counter 3239, Mtb hypoxia inh 11, PrP 5UTR inh -17, Sa ugtP lethal -4, RN4220 kill 0.8 and Mtb hypoxia inh growth 6.
`Cc1ccc2c(c1)nnn2C1CCN(S(=O)(=O)c2ccc(C(=O)NC3CCCC3)cc2)CC1` gave Autofluor counter 8555, Mtb hypoxia inh 5, PrP 5UTR inh -41, Sa ugtP lethal 14, BJeLR viability -9, RN4220 kill 0.2 and Mtb hypoxia inh growth -9.
`CCCN1CCN(CC(O)COC(c2ccc(OC)cc2)c2ccc(OC)cc2)CC1` (configuration not stated) gave Autofluor counter 3869, Mtb hypoxia inh 13, PrP 5UTR inh -36, Sa ugtP lethal 13, BJeLR viability -7, RN4220 kill -3.3 and Mtb hypoxia inh growth 5.
`CC1CN(c2ccccc2)c2nc3c(c(=O)[nH]c(=O)n3C)n2C1` (configuration not stated) gave Autofluor counter 3752, Mtb hypoxia inh 1, PrP 5UTR inh -12, Sa ugtP lethal 13, BJeLR viability 1, RN4220 kill 1.1 and Mtb hypoxia inh growth 3.
For CCOc1cccc2c1OC(c1cc(OC)c(OC)c(OC)c1)N1N=C(c3ccc(C)o3)CC21 (configuration not stated) the results were Autofluor counter 5598, Mtb hypoxia inh 14, PrP 5UTR inh -89, Sa ugtP lethal 0, BJeLR viability -2, RN4220 kill 6.7 and Mtb hypoxia inh growth 10.
O=C(NC(=S)NCc1ccco1)c1ccc([N+](=O)[O-])cc1 was read as Autofluor counter 4166, Mtb hypoxia inh 2, PrP 5UTR inh -36, Sa ugtP lethal -14, RN4220 kill 1.9 and Mtb hypoxia inh growth 2.
For CC(C)Oc1ccc(C2C(C#N)=C(N)Oc3c2c(=O)oc2ccccc32)cc1 (configuration not stated) the results were Autofluor counter 4058, Mtb hypoxia inh 0, PrP 5UTR inh -18, Sa ugtP lethal 12, BJeLR viability -2, RN4220 kill -3.8 and Mtb hypoxia inh growth 1.
For O=C(CSc1nnnn1C1CC2C=CC1C2)Nc1ccc(C(=O)O)cc1 (configuration not stated) the results were Autofluor counter 6149, Mtb hypoxia inh -5, PrP 5UTR inh -39, Sa ugtP lethal 3, BJeLR viability -8, RN4220 kill -2.3 and Mtb hypoxia inh growth -8.
CSc1nc(N)nc(SCC(=O)c2ccccc2)c1C#N was read as Autofluor counter 3015, PrP 5UTR inh -15, Sa ugtP lethal -2, BJeLR viability 6 and RN4220 kill 2.7.
Cc1ccc(NC(=O)CCn2nc(C)cc2C)c(C)c1 was read as Autofluor counter 5512, PrP 5UTR inh -12, Sa ugtP lethal -3, BJeLR viability -5 and RN4220 kill 4.1.
`O=C(CN1C(=O)C2C3c4ccccc4C(c4ccccc43)C2C1=O)Nc1ccccc1C(=O)O` (configuration not stated) gave Autofluor counter 2044, Mtb hypoxia inh 6, PrP 5UTR inh 0, Sa ugtP lethal 9, BJeLR viability -2, RN4220 kill 2.4 and Mtb hypoxia inh growth -2.
Screening CCOC(=O)c1cc(=O)n2[nH]c(-c3ccc(C)cc3)cc2n1 returned Autofluor counter 3207, Mtb hypoxia inh 1, PrP 5UTR inh -2, Sa ugtP lethal -9, BJeLR viability -2, RN4220 kill 6.3 and Mtb hypoxia inh growth 6.
For COc1ccccc1CN(Cc1cc2cc3c(cc2[nH]c1=O)OCCO3)Cc1nnnn1Cc1ccco1 the results were Autofluor counter 23267*, Mtb hypoxia inh -14, PrP 5UTR inh -85, Sa ugtP lethal -13, BJeLR viability -8, RN4220 kill 0.2 and Mtb hypoxia inh growth 9.
For Cn1c(=O)c2[nH]c(COc3ccc(C(C)(C)C)cc3)nc2n(C)c1=O the results were Autofluor counter 4196, Mtb hypoxia inh -7, PrP 5UTR inh -33, Sa ugtP lethal 10, BJeLR viability -7, RN4220 kill 0.3 and Mtb hypoxia inh growth 6.
For Cc1cccc(C(=O)OCC(=O)NC(C)C2CC3CCC2C3)c1O (configuration not stated) the results were Autofluor counter 4537, Mtb hypoxia inh 0, PrP 5UTR inh -14, Sa ugtP lethal 1, RN4220 kill -3.6 and Mtb hypoxia inh growth -3.
`CC(=O)Nc1ccc(C(=O)NC(CC(=O)O)c2ccc(Cl)cc2)cc1` (configuration not stated) gave Autofluor counter 7719, Mtb hypoxia inh 8, PrP 5UTR inh -7, Sa ugtP lethal 3, BJeLR viability -3, RN4220 kill 5.5 and Mtb hypoxia inh growth 0.
`CC(C)(C)c1ccc(C(=O)CCC(=O)NCc2ccccc2)cc1` gave Mtb hypoxia inh 15, Sa ugtP lethal 5, RN4220 kill 11 and Mtb hypoxia inh growth 3.
`Cc1ncc(CO)c(/C=N/NC(=S)Nc2ccc(Cl)c(Cl)c2)c1O` gave Autofluor counter 2478, PrP 5UTR inh -6 and BJeLR viability -11.
Screening COc1cc(OC)cc(/C(N)=N/O)c1 returned Autofluor counter 6066, Mtb hypoxia inh 13, PrP 5UTR inh -29, Sa ugtP lethal 12, BJeLR viability 1, RN4220 kill 2.7 and Mtb hypoxia inh growth 4.
For [2H]c1c([2H])c([2H])c(-c2nc(N3CCCCCC3)sc2C(=O)c2ccccc2)c([2H])c1[2H] the results were Autofluor counter 2667, PrP 5UTR inh 0, Sa ugtP lethal 65, BJeLR viability 0 and RN4220 kill 4.9.
COCCCNC(=O)Cn1ncc2ccsc2c1=O was read as Autofluor counter 5964, Mtb hypoxia inh -3, PrP 5UTR inh -15, Sa ugtP lethal 0, BJeLR viability -4, RN4220 kill -2.0 and Mtb hypoxia inh growth -2.
CCS(=O)(=O)N1Cc2ccccc2CC1C(=O)Nc1ncc(C)s1 (configuration not stated) was read as Autofluor counter 4217, Mtb hypoxia inh 2, PrP 5UTR inh -56, Sa ugtP lethal 7, BJeLR viability 3, RN4220 kill 3.9 and Mtb hypoxia inh growth 6.
For CCOc1ccc(-n2nnc3c(=O)n(CC(=O)NCc4ccco4)cnc32)cc1 the results were Autofluor counter 4666, Mtb hypoxia inh 2, PrP 5UTR inh -23, Sa ugtP lethal -5, BJeLR viability 3, RN4220 kill 0.0 and Mtb hypoxia inh growth 4.
`Cc1sc(NC(=S)NC(=O)c2ccco2)c(C(N)=O)c1C` gave Autofluor counter 4721, Mtb hypoxia inh -7, PrP 5UTR inh -34, Sa ugtP lethal -5, BJeLR viability 2, RN4220 kill -4.0 and Mtb hypoxia inh growth -7.
Screening O=C(O)Cc1csc(-c2ccccc2)n1 returned Autofluor counter 2569, Mtb hypoxia inh 11, PrP 5UTR inh -2, Sa ugtP lethal 7, BJeLR viability 2, RN4220 kill 4.1 and Mtb hypoxia inh growth 13.
For C=CCCC(Cc1ccc(F)cc1)C(=O)OCC(NC(=O)C(CC=C)CC(=O)NC(CO)Cc1ccccc1)C(C)(C)C (configuration not stated) the results were Mtb hypoxia inh 11&8&5&18, Sa ugtP lethal -1&-7&-3&3, RN4220 kill -0.1&-4.8&-8.3&-0.9 and Mtb hypoxia inh growth -5&-2&8&14.
Screening CC(=O)N1CCc2cc(S(=O)(=O)Nc3ccc(C)cc3)ccc21 returned Autofluor counter 3075, Mtb hypoxia inh 5, PrP 5UTR inh -29, Sa ugtP lethal 3, BJeLR viability -6, RN4220 kill 2.9 and Mtb hypoxia inh growth 7.
O=C(Nc1nc2nc(-c3ccccc3)cc(=O)n2[nH]1)c1ccccc1 was read as Autofluor counter 3134, Mtb hypoxia inh -7, PrP 5UTR inh -9, Sa ugtP lethal -1, BJeLR viability -5, RN4220 kill 6.9 and Mtb hypoxia inh growth 5.
Cc1csc(NC(=O)c2cccs2)n1 was read as Autofluor counter 3761, PrP 5UTR inh -81, Sa ugtP lethal 2, BJeLR viability 1 and RN4220 kill 4.1.
For COc1ccc2c(c1)OCC1C2N2C(=O)CN(CC3CCCO3)C(=O)[C@@]2(C)C1c1ccccc1 (some centres not stated) the results were Mtb hypoxia inh -5, Sa ugtP lethal 7, RN4220 kill 7.2 and Mtb hypoxia inh growth 8.
For CCCCn1c(-c2ccc(Br)cc2F)nc2c1c(=O)[nH]c(=O)n2CC(C)C the results were Autofluor counter 2957, Mtb hypoxia inh 8, PrP 5UTR inh -11, Sa ugtP lethal -7, BJeLR viability -4, RN4220 kill -2.8 and Mtb hypoxia inh growth 3.
`O=C(Nc1cccc(S(=O)(=O)N2CCCCC2)c1)C1COc2ccccc2O1` (configuration not stated) gave Autofluor counter 8530, Mtb hypoxia inh -11, PrP 5UTR inh -13, Sa ugtP lethal 2, RN4220 kill 0.0 and Mtb hypoxia inh growth -7.
`Cc1ccc(C)c2c3c([nH]c12)-c1nonc1CC3` gave Autofluor counter 2648, Mtb hypoxia inh 9, PrP 5UTR inh -5, Sa ugtP lethal -1, BJeLR viability 0, RN4220 kill 1.6 and Mtb hypoxia inh growth 4.
CC1CCCN(C(=O)Cn2nnc(-c3ccc(N(C)C)cc3)n2)C1 (configuration not stated) was read as Autofluor counter 3716, Mtb hypoxia inh 0, PrP 5UTR inh -29, Sa ugtP lethal 8, BJeLR viability 2, RN4220 kill 4.4 and Mtb hypoxia inh growth 2.
Screening Cc1ccccc1C(=O)NC(=S)NC1CC1 returned Autofluor counter 3960, Mtb hypoxia inh -3, PrP 5UTR inh -12, Sa ugtP lethal 5, BJeLR viability 0, RN4220 kill 2.2 and Mtb hypoxia inh growth 2.
For COc1ccc2cc(C(c3nnnn3CC3CCCO3)N3CCOCC3)c(=O)[nH]c2c1 (configuration not stated) the results were Autofluor counter 4453, Mtb hypoxia inh 5, PrP 5UTR inh -34, Sa ugtP lethal 4, BJeLR viability 12, RN4220 kill 2.8 and Mtb hypoxia inh growth 15.
`NS(=O)(=O)c1ccc(CNC(=O)/C=C/c2ccc(S(=O)(=O)N3CCOCC3)cc2)cc1` gave Autofluor counter 4801, Mtb hypoxia inh 1, PrP 5UTR inh 3, Sa ugtP lethal 5, BJeLR viability -6, RN4220 kill 3.3 and Mtb hypoxia inh growth 9.
`CC1CN(S(=O)(=O)c2ccc(CN3C(=O)c4cccnc4C3=O)s2)c2ccccc2O1` (configuration not stated) gave Autofluor counter 5192, Mtb hypoxia inh 8, PrP 5UTR inh -18, Sa ugtP lethal 10, BJeLR viability 8, RN4220 kill 1.8 and Mtb hypoxia inh growth -2.
Screening CCOC(=O)C1CCN(C(=O)c2ccc(C)c(S(=O)(=O)N3CCCC3)c2)CC1 returned Autofluor counter 6221, Mtb hypoxia inh -4, PrP 5UTR inh -2, Sa ugtP lethal 0, BJeLR viability 0, RN4220 kill 2.3 and Mtb hypoxia inh growth 3.
`O=C(Cc1n[nH]c(=O)[nH]c1=O)N/N=C/c1ccccc1` gave Autofluor counter 5060, PrP 5UTR inh -40 and BJeLR viability -12.
`CSc1cccc(NC(=O)/C=C/c2ccco2)c1` gave Autofluor counter 4445, Mtb hypoxia inh -5, PrP 5UTR inh -64, Sa ugtP lethal 6, BJeLR viability -11, RN4220 kill 2.0 and Mtb hypoxia inh growth 0.
